Screens as filed in PubChem.
RN4220 kill: S. aureus RN4220 growth inhibition; 0.33% of 330,000 active; OD600, 16 h; AID 1259311; inhibition, % (concentration not given with the values);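 active = z-score of -3 or lower and OD600 up to 0.18 on both plates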;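 also: plate controls were untreated cells for no effect and reference antibiotic for full effect; stock transfer was 100 nL into about 80 µL; one replicate is shown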
PrP UTR inh: suppresses PrP 5' UTR mRNA reporter expression. cell-based PrP 5' UTR mRNA reporter, plate reader. inhibition, % (no concentration beside the values). 0.35% of 340,000 active. AID 488862;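 active = every replicate at 50% or more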;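 also: 0 = median of the neutral control wells; tested in H4 reporter cells; numbers are from one replicate; inactives centre near -14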
Bead autofluor: compound fluorescence in toxin protease inhibitor counterscreen; 3.1% of 360,000 active; fluorescence intensity (no concentration beside the values); compound autofluorescence counterscreen, microsphere flow cytometry; hits give high values; AID 624483;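 active = at least 3 SD above the mean of all compounds, about 16000 in these data; inconclusive = too few beads counted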;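 also: 100 nL of 1 mM stock went into each well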
Sa ugtP lethal: kills S. aureus RN4220 lacking UgtP | S. aureus RN4220 ugtP deletion, OD600 growth, 16 h; some inactives read as strong as hits | growth inhibition, % (test concentration not listed) | 0.54% of 330,000 active | AID 1259309;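 active = z-score under -3 and OD600 up to 0.15 on both plates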;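 also: plate controls were untreated wells for no effect and antibiotic for full effect; wells of about 80 µL received 100 nL stock; the first replicate is given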
Mtb hypoxia rep: inhibitors of hypoxia-regulated fluorescent reporter in Mycobacterium tuberculosis; M. tuberculosis hypoxia-regulated fluorescent reporter, fluorescence; fluorescence inhibition, % (test concentration not listed); 0.1% of 300,000 active; AID 1159583;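 active = 35 to 45% if threefold the growth effect, above 45% if 1.5-fold the growth effect; inactive = the rest, general growth blockers included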;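 also: wells of about 50 µL received 100 nL stock; 0% = vehicle wells and 100% = reference inhibitor wells; whole bacteria with a GFP reporter of the hypoxia response; strong numbers were not always called active; many hits fall short of the cut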
BJeLR viability: kills HRASV12-expressing BJeLR cells. BJeLR (HRASV12) viability, CellTiter-Glo ATP luminescence, 48 h; reference of the scale not given here. inhibition, % (no concentration beside the values). 0.17% of 300,000 active. AID 1554;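 active = replicate mean above 50%; inconclusive = above 50% but judged a plate artefact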;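 also: 50 nL library stock added to about 25 µL; numbers are from one replicate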
Mtb hypoxia rep growth: also measured in Mtb hypoxia rep; calls as there; growth inhibition, %; measured here: M. tuberculosis growth (absorbance);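 0% = vehicle and 100% = reference antibiotic; read after six days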
An asterisk follows results filed as active; ? = inconclusive; nt = no result given.

SMILES	RN4220 kill	PrP UTR inh	Bead autofluor	Sa ugtP lethal	Mtb hypoxia rep	Mtb hypoxia rep growth	BJeLR viability
O=C(OCC(=O)N1CCC(Cc2ccccc2)CC1)c1cc(Cl)ccc1O	1.3	-20	4478	14	7	0	2
O=C(NCCN1CCNCC1)c1ccccn1	4.4	-29	9204	-6	6	6	1
Cc1ccc(C)c(N2C(=O)CC(Cc3ccc(Br)cc3)C2=O)c1 (configuration not stated)	2.0	-36	4035	10	6	-3	15
CCOc1ccccc1CN1CCNC(=O)C1CC(=O)NCCc1ccccn1 (configuration not stated)	2.1	-23	7658	6	3	-3	4
O=C(O)c1ccc(S(=O)(=O)N2CCC(NC(=O)C3CCCCC3)CC2)cc1	0.7	-31	3376	8	10	2	-1
CCCCOc1ccc(Nc2nc(C)cc(C)c2C#N)cc1	0.4	-16	4459	-3	7	22	3
Cc1cccc(C)c1NC(=S)NCCc1ccc(O)c(O)c1	8.4	-4	4697	12	9	2	-34
O=C(N/C(=C\c1ccc(Cl)cc1)C(=O)N1CCOCC1)c1ccco1	-0.6	-20	3325	-3	-8	-22	-5
Fc1ccc(-c2cc(C(F)(F)C(F)F)[nH]n2)cc1	-0.9	nt	3725	86*	3	10	0
CC1CCCCN1S(=O)(=O)c1ccc(NC(=O)CSc2nnnn2C)cc1 (configuration not stated)	1.8	-19	21890*	-4	-6	11	4
Cc1cccc(OCCC(=O)N(C)CC(=O)Nc2cccc3ccccc23)c1	2.9	-16	2090	13	7	2	2
c1ccc2c(c1)nnn2Cc1nnc2sc(-c3ccncc3)nn12	4.9	1	9527	12	0	7	-1
CNC(=O)NC(=O)CSc1nnc(-c2ccco2)n1-c1ccccc1	4.9	-20	3825	16	9	14	7
CC(=O)Nc1ccc(NC(=O)Nc2cccc3ccccc23)cc1	1.6	-28	nt	15	-7	-6	-12
COc1ccccc1C(=O)NC(=O)CSc1nnc(N)s1	0.5	-10	nt	-3	-5	8	nt
CCN1C(=O)C(CC(=O)Nc2cccc(C(C)=O)c2)SC1=Nc1ccccn1 (configuration not stated)	1.5	nt	nt	2	13	14	nt
CCN(CC)S(=O)(=O)c1nnc(NC(=O)c2ccco2)s1	-1.3	-11	3453	10	nt	nt	3
CCC(C(=O)Nc1cccnc1)n1c(=O)[nH]c2ccccc2c1=O (configuration not stated)	5.0	-13	6432	16	-8	9	3
O=C(CNC(=O)[C@@H]1Cc2ccccc2CN1)Nc1ccc2c(c1)OCCO2	-0.4	-19	5668	8	7	1	-3
CCOC(=O)CN1C(=O)N[C@@H](c2cccs2)C(C(=O)OC)=C1C	nt	-77	3839	nt	nt	nt	-4
O=C(/C=C/c1ccccc1[N+](=O)[O-])Nc1ccccc1	27	-102	2338	-7	10	14	5
N#CC(c1ccc(Cl)nn1)c1ccccc1Cl (configuration not stated)	1.5	2	2585	2	4	2	-5
CC(OC(=O)c1ccccc1C(=O)N(C)c1ccccc1)C(=O)Nc1ccc(C(N)=O)cc1 (configuration not stated)	8.3	-12	?	0	5	1	10
CCOCCCNC(=O)c1cc2c(=O)n3ccccc3nc2s1	6.0	-21	3760	4	9	9	-3
CCOC(=O)C1=CN(Cc2ccco2)S(=O)(=O)N(C)C1c1ccc2ccccc2c1 (configuration not stated)	-0.7	55*	3973	-4	-8	-3	nt

Gathered by group: the compounds so far with a cyano group.
SMILES	RN4220 kill	PrP UTR inh	Bead autofluor	Sa ugtP lethal	Mtb hypoxia rep	Mtb hypoxia rep growth	BJeLR viability
CCCCOc1ccc(Nc2nc(C)cc(C)c2C#N)cc1	0.4	-16	4459	-3	7	22	3
N#CC(c1ccc(Cl)nn1)c1ccccc1Cl (configuration not stated)	1.5	2	2585	2	4	2	-5

The list continues.
SMILES	RN4220 kill	PrP UTR inh	Bead autofluor	Sa ugtP lethal	Mtb hypoxia rep	Mtb hypoxia rep growth	BJeLR viability
CC(C)n1nc(C(=O)Nc2nnc(C3CC3)s2)c2ccccc2c1=O	1.4	-12	3236	0	5	15	0
COc1ccc(NC(=O)CN2CCN(CC(=O)Nc3ccc(F)cc3F)CC2)cc1	5.8	-21	3826	8	-10	-7	17
Cc1ccc(C(=O)NNC(=O)c2cc3ccccc3cc2O)cc1	8.7	-10	3515	9	17	8	5
CCS(=O)(=O)NCC(c1cccnc1)N1CCN(c2ccccc2)CC1 (configuration not stated)	-15	8	4889	-3	1	2	-7
Oc1oc(-c2ccccc2Br)nc1/C=N/c1ccccn1	nt	-46	2649	nt	nt	nt	-1
S=c1[nH]nc(CSc2nc3ccccc3s2)o1	13	-23	3475	2	17	8	6
CCCNC(=O)COc1coc(CN2CCN(c3ccccc3OC)CC2)cc1=O	1.6	5	4588	1	10	-1	3
CC(=O)c1ccccc1N(C(=O)c1ccco1)C(C(=O)NC1CCCC1)c1ccc(C)cc1 (configuration not stated)	-0.3	-9	3547	3	2	9	-3
Nc1nn(-c2ccccc2)nc1C(=O)OCc1ccccc1F	13	-12	4549	2	0	-7	0
CCN(CC)CCOC(=O)c1cccc2c1-c1ccccc1C2O (configuration not stated)	2.1	-24	5952	8	1	-1	4
CCCC(=O)NCCCc1nc2ccccc2n1CCC	6.8	-29	3457	9	10	4	10
O=Cc1cc([N+](=O)[O-])ccc1N1CCN(Cc2ccc3c(c2)OCO3)CC1	7.8	-9	3607	18	3	0	7
Cc1ccc2oc(=O)c3cnn(CC(=O)N4CCCc5ccccc54)c3c2c1	-11	4	4878	-3	1	3	-7
S=C(Nc1ccc(Cl)cc1Cl)N1CCCCC1	-0.7	-25	2092	-2	2	-1	3
COc1ccc(CSc2nc(N3CCOCC3)c3c(c2C#N)CC(C)(C)OC3)cc1	3.7	-6	10184	9	2	0	4
O=C(C(Cc1ccccc1)n1cccc1)N1CCN(c2ncccn2)CC1 (configuration not stated)	-3.4	-10	4315	9	4	6	1
NCc1nc(-c2ccc(Cl)cc2)no1	3.2	-11	2049	-13	-8	-5	-5
CCN(CC)CCCNC(=O)C1c2ccccc2C(=O)N1Cc1ccc(C)cc1 (configuration not stated)	1.0	-18	11037	4	3	0	7
CC(=O)c1c(O)cc(C(C)C)n(-c2ccccc2)c1=O	4.5	-29	2393	3	7	5	-7
c1ccc(-c2cc(-c3ccccc3)[n+](-c3ccccc3)c(-c3ccccc3)c2)cc1	5.4	-9	4666	-2	nt	nt	15
COc1ccc(NC(=O)N2CCCC2C(=O)NC23CC4CC(CC(C4)C2)C3)cc1 (configuration not stated)	3.7	-5	2947	6	0	-4	9
CN(C)CCCN1C(=O)c2cc3ccccc3cc2C1=O	1.0	-17	nt	1	5	1	-1
COc1ccc(C=NOCC(=O)N2CC3(C)CC2CC(C)(C)C3)cc1OC (configuration not stated)	5.1	nt	nt	3	1	3	nt
COCCNC(=S)NN=Cc1c(C)[nH]c2ccccc12	6.3	nt	nt	-2	9	3	nt
CC(=NNC(=O)CSc1ncccn1)c1ccc2c(c1)OCCO2	5.3	nt	nt	-3	3	10	nt
N#CC1=C(N2CCOCC2)/C(=C\c2ccccc2)CC1	4.4	-7	2444	1	2	7	-3
CCOC(=O)CSc1nc(C)[nH]c1[N+](=O)[O-]	nt	0	2492	nt	nt	nt	5
Cc1cccc(-c2cc3nc4c(c(N5CCC6(CC5)OCCO6)n3n2)CCCC4)c1	8.2	-27	9637	1	11	-1	nt
O=C(NCC(c1ccco1)N1CCCCC1)c1ccc(NS(=O)(=O)c2ccc(F)cc2)cc1 (configuration not stated)	0.3	-22	6407	12	8	-17	4
CCOC(=O)C1C2COc3ccc(C)cc3C2N2C(=O)CN(Cc3ccc(C)cc3)C(=O)[C@@]12C (some centres not stated)	5.3	nt	nt	7	12	10	nt
O=S(OCCN1CCOCC1)C(c1ccccc1)c1ccccc1 (configuration not stated)	3.7	-8	3453	5	18	13	nt
CCOCc1nnc(NC(=O)c2cc(OC)c(OC)c(OC)c2)s1	0.2	6	3322	4	-5	1	4
O=C(c1ccc(F)cc1)N1CCN(c2ccc(N3CCOCC3)nn2)CC1	3.5	2	3489	-2	9	-5	3
Cc1cc(Cl)ccc1OCC(=O)NCc1ccncc1	4.7	-41	8121	-2	9	0	-13
Cc1ccnc(NS(=O)(=O)c2ccc(NC(=O)c3c(-c4ccccc4Cl)noc3C)cc2)n1	3.9	-20	?	7	2	1	-1
CC(C)c1nc(SCC(=O)Nc2ccc(N3CCOCC3)cc2)c2ccccc2n1	-5.2	-5	9764	-5	1	9	-15
CC(=O)Nc1nc2ccccc2n1CCOc1ccccc1	-0.8	10	3677	4	nt	nt	0
O=C(NCC(c1ccco1)N1CCN(c2ccccc2F)CC1)c1ccco1 (configuration not stated)	5.2	-20	6074	8	6	0	2
O=C(NCc1ccco1)C(c1cccs1)N(C(=O)Cc1cccs1)c1ccccc1 (configuration not stated)	9.1	5	3264	0	4	3	2
CC(C)c1ccc(NC(=O)NC(C)c2ccc3c(c2)OCO3)cc1 (configuration not stated)	-0.6	10	3790	13	2	1	12
CCCC(=O)Nc1ccc(C(=O)Nc2nnc(COCC)s2)cc1	-0.5	-5	4141	-4	-9	-6	2
CCC(C)(C)n1nnnc1C(c1ccc(C)cc1)N1CCCC1 (configuration not stated)	4.1	-6	10046	2	6	9	16
CC1=C(c2ccc(C(C)C)cc2)S(=O)(=O)N=C1N1CCN(C(=O)c2ccco2)CC1	4.1	-8	5237	-2	6	4	4
CCN(CC)CCCNC(=O)c1sc2ncn(CC(=O)Nc3ccc(C)c(Cl)c3)c(=O)c2c1C	-0.4	-10	2116	13	3	14	6
COc1cc(C2C(C#N)=C(C)NC3=C2C(=O)CC(C)(C)C3)cc(OC)c1O (configuration not stated)	4.8	-12	2409	1	12	3	3
Cc1cc(C(=O)N2CCN(c3ccccc3)CC2)no1	1.6	-1	8202	3	5	0	3
COc1ccc(C(=O)N(CCCO)C(C)C(=O)NC2CCCCC2)cc1OC (configuration not stated)	2.8	3	21753*	3	2	-5	10
Cc1csc(NC(=O)c2cc3ccccc3o2)n1	-4.5	-38	4041	-18	-10	2	nt
Cc1ccc(Cn2cccc(NC(=O)NC3CCCCC3)c2=O)cc1	-9.8	-21	3664	-3	8	3	6
COc1cc(NC(=O)C(C)Oc2ccccc2)ccc1NC(=O)COc1ccccc1 (configuration not stated)	8.9	-1	5650	0	4	6	2

Arranged by count of non-hydrogen atoms (falling): part of the list above
SMILES	RN4220 kill	PrP UTR inh	Bead autofluor	Sa ugtP lethal	Mtb hypoxia rep	Mtb hypoxia rep growth	BJeLR viability
Cc1cc(C(=O)N2CCN(c3ccccc3)CC2)no1	1.6	-1	8202	3	5	0	3
S=c1[nH]nc(CSc2nc3ccccc3s2)o1	13	-23	3475	2	17	8	6
CCOC(=O)CSc1nc(C)[nH]c1[N+](=O)[O-]	nt	0	2492	nt	nt	nt	5

Following part:
SMILES	RN4220 kill	PrP UTR inh	Bead autofluor	Sa ugtP lethal	Mtb hypoxia rep	Mtb hypoxia rep growth	BJeLR viability
S=C(Nc1ccccc1)N1CCCCCCC1	1.6	-26	4580	2	-9	0	2
COc1ccc(S(=O)(=O)N2CC(O)CC2C(=O)OCC(=O)Nc2ccc(Cl)cn2)cc1 (configuration not stated)	1.2	-10	4245	-2	nt	nt	-1
COc1cccc2c1OCC(C(=O)O)C2 (configuration not stated)	5.3	-29	4711	10	1	1	2
Cn1c(=O)c2c(nc(NC3CCCC3)n2C)n(C)c1=O	2.7	-16	3672	-1	1	0	-1
C#CCSc1nc(-c2cccs2)ccc1C#N	4.3	-10	3228	-1	8	4	1
CC(C)Cc1nc(SCC(=O)N2CCOCC2)c2c(=O)n(C)c(=O)n(C)c2n1	6.0	-21	6898	-5	-6	-2	-5
O=C(Nc1ccc(F)c(Cl)c1)c1cncs1	-0.7	-4	2858	9	-3	6	8
CC(=O)CN1C(=O)NC(c2ccccc2)(c2ccccc2)C1=O	2.3	-4	3900	6	-1	-9	-2
CN1CC(=O)N(CCOc2ccccc2)C1=O	-0.6	-14	4073	8	nt	nt	31
O=C(CSc1ccccc1)NCc1ccccc1	5.6	-26	4250	16	13	3	12
CCSc1nnc(NC(=O)Cn2cnc3c2c(=O)n(C)c(=O)n3C)s1	7.9	-13	4402	4	nt	nt	-8

An unsorted share of the library. About 4% of those tested had a hit in this group.
